# GIV-Gai inh – blocks GIV peptide binding to rat Galpha-i3; P08753; Galpha-i3/FITC-GIV peptide fluorescence polarization, 90 min; stronger effect = lower value; scaled: aluminum fluoride 0%, vehicle 100%; percent of control (FP), % (concentration not given with the values); 0.42% of 210,000 active;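 active = replicate mean at 85% of control or lower, very high polarization wells dropped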;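 note: wells of about 15 µL received 100 nL stock; the first replicate is given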
# Target sequence (P08753 whole entry, looked up): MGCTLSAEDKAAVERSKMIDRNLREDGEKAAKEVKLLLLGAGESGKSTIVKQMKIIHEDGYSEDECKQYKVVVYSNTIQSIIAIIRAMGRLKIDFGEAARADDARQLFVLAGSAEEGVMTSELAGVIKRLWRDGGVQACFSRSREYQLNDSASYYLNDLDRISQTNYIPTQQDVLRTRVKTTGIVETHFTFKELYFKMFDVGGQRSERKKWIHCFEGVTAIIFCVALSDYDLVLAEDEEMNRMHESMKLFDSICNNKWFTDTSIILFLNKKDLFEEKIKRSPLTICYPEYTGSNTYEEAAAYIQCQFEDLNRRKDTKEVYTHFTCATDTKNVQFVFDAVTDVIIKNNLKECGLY
# HCMV NEC inh – inhibitors of HCMV UL50-UL53 nuclear egress complex interaction | HTRF UL50-UL53 interaction, normalized percent inhibition | inhibition, % (concentration not given with the values) | 0.15% of 190,000 active;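 active = both replicates at 50% or more, plus weaker picks with an unusually low signal ratio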;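 note: stock transfer was 100 nL into about 20 µL; 0% = negative control wells and 100% = wells with untagged competitor protein; inactives centre near -12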
# Sa growth 42C – blocks Staphylococcus aureus growth. S. aureus RN4220 growth, OD600, 20 h, 42 °C; stronger effect = lower value. relative growth, % (test concentration not listed). 0.53% of 170,000 active. AID 720641;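 active = growth at 42 °C up to 50% and 20 or more points under that at 30 °C, or under 10% at both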;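 note: 300 nL library stock went into each well; scaled to the means of positive and negative controls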
# Sa growth 42C second temp – recorded beside Sa growth 42C, whose call it bears; relative growth, %; measured here: growth at 30 °C;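 optical density after 20 h as mean of two plates; 100% = untreated growth and lower means inhibition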
# * hit, by the source's call; x = not tested or not shown. Rows are unselected; overall some 0.83% were active at least once.
# Values in the order – GIV-Gai inh	Sa growth 42C	Sa growth 42C second temp	HCMV NEC inh
> Cc1cccc(NC(=O)c2oc3c(c2C)-c2[nH]ncc2CC3)c1C
  103	82	76	-7
> COc1ccc(-c2cn3nc(N4CCC(C(=O)NCc5cccc(Cl)c5)CC4)sc3n2)cc1
  113	111	88	x
> CCn1c(=O)c(=O)[nH]c2cc(-c3noc(-c4ccc5c(c4)OCO5)n3)ccc21
  102	x	x	31
> CN(C1CCCCC1)S(=O)(=O)c1csc(C(N)=O)c1
  97	88	92	x
> CCCCOc1ccc(C(=O)NCc2csc(-c3ccc(OC)cc3)n2)cc1
  101	x	x	-17
> O=C1C=CC(=O)N1Cc1cccs1
  105	76	30	-5
> C=CCOc1ccc(CNCCSc2nnnn2-c2ccccc2)cc1OCC
  101	x	x	-6
> CCOC(=O)c1c(NC(=O)c2ccc(Cl)cc2Cl)sc(C(=O)Nc2ccccc2C)c1C
  107	x	x	7
> Cc1ncc(CO)c2cc(C(=O)Nc3ccccc3)c(=Nc3ccccc3)oc12
  103	112	88	x
> COc1ccc(N2C(=O)c3ccccc3NC2c2ccc(OC)c(COc3ccccc3F)c2)cc1 (stereo unspecified)
  103	x	x	-12
> Cc1cccc(CN2C(=O)c3ccccc3S(=O)(=O)c3ccc(C(=O)NCCN4CCCC4)cc32)c1
  101	97	84	0
> OCCCNc1ncnc2oc(-c3ccccc3)c(-c3ccccc3)c12
  106	111	93	-21
> CCN1CCC(N(Cc2ccco2)C(=O)Nc2cc(C)cc(C)c2)CC1
  99	103	84	x
> Cc1cc2nc(C)c(=O)n(Cc3ccc(C(=O)N4CCN(c5ccccn5)CC4)cc3)c2cc1C
  105	x	x	-38
> COc1ccc(N(C)C(=O)Cc2c(C(=O)O)[nH]c3ccccc23)c(OC)c1
  100	56	61	-28
> Cc1ccc(CNC(=O)CNS(=O)(=O)c2cc(-c3noc(C)n3)sc2C)cc1
  102	x	x	-9
> CC(C)CC(C(=O)NCC1CCN(Cc2ccc(F)cc2)CC1)N1Cc2ccccc2C1=O (stereo unspecified)
  108	113	97	x
> Cc1cc(-c2ccc3ccccc3n2)nc2ccc3ccccc3c12
  96	94	100	x
> Cc1ccc(C2=NN=C(NC(=O)C(F)(F)F)SC2)cc1
  101	119	77	x
> Cc1[nH]c(=O)[nH]c(=O)c1S(=O)(=O)N1c2ccc(F)cc2CCC1C (stereo unspecified)
  100	106	94	1
> O=C(CCN1C(=O)c2ccccc2C1=O)NC1CCCCCC1
  98	96	86	-24
> CC(=O)N1CCCC1C(=O)O (stereo unspecified)
  104	113	92	-4
> O=C(Cc1cccc2ccccc12)NC1CCCCNC1=O (stereo unspecified)
  100	168	106	14
> CCOc1ccc(OCC)c(N2C(=O)NC(=O)/C(=C\c3ccc4c(c3)OCO4)C2=O)c1
  119	x	x	-10
> Cc1ccc(-n2nc3c(N4CCC(C(=O)N5CCC(C)CC5)CC4)nnc(C)c3c2C)cc1
  111	98	98	x
> Cc1ccccc1NC(=O)C1Cc2ccccc2C(=O)O1 (stereo unspecified)
  104	84	73	-8
> CC1(C)CC(NC(=O)C2CCCCC2)CC(C)(C)N1
  103	98	89	3
> CN1C(=O)c2ccc(S(=O)(=O)c3ccc(C(=O)O)cc3)cc2C1=O
  94	100	88	-11
> CCc1c(C#N)sc(C(N)=O)c1CC
  105	99	92	-18
> O=C(NCc1cccnc1)c1cn(Cc2ccccc2)nn1
  97	83	81	-2
> CCOC(=O)c1nc(N2CCC(C(N)=O)(N3CCCCC3)CC2)c2c3c(sc2n1)CCCC3
  105	x	x	2
> CCOc1ccc(-n2c(-c3nn(C)cc3Cl)n[nH]c2=S)cc1
  96	106	77	x
> O=C(CCc1nc2sc3c(c2c(=O)[nH]1)CCCCC3)NC1CC1
  100	x	x	-11
> CN1CCN(c2nc3c(c(=O)n(C)c(=O)n3C)n2Cc2ccc(Cl)cc2Cl)CC1
  100	x	x	-28
> CCc1cccc(NC(=O)CC2SC(N3CCCC3)=NC2=O)c1 (stereo unspecified)
  x	107	81	2
> COc1ccc(CNC(=O)C2(C)Cn3nc(C)cc3C(=O)N2c2cc(OC)cc(OC)c2)cc1 (stereo unspecified)
  101	x	x	-1
> CC(C)(C)S(=O)(=O)c1ccc(NC2CCCCCC2)nn1
  97	x	x	-21
> CC(C(=O)N1CCNC1=O)N1CCCC1c1cccs1 (stereo unspecified)
  x	89	82	-34
> CCC(=O)NC(=S)c1c(C)nc2sccn12
  x	87	79	-98
> O=C(NCc1nc(-c2ccccc2Cl)no1)c1cccs1
  106	76	67	-22

# 3 compounds from above, ordered by the number in Sa growth 42C, low to high.
SMILES	Sa growth 42C
Cc1ccccc1NC(=O)C1Cc2ccccc2C(=O)O1 (stereo unspecified)	84
CCC(=O)NC(=S)c1c(C)nc2sccn12	87
CC1(C)CC(NC(=O)C2CCCCC2)CC(C)(C)N1	98

# The list continues:
# Values in the order – GIV-Gai inh	Sa growth 42C	Sa growth 42C second temp	HCMV NEC inh
> CCC1CC(CSc2ncn[nH]2)OC1=O (stereo unspecified)
  101	90	84	x
> O=C(c1cnn2c(C(F)F)cc(-c3ccccc3)nc12)N1CCCC1
  103	102	72	-59
> O/N=C(\CN1CCCCC1)c1ccccc1
  103	91	90	-13
> COc1ccc(-c2cn3cccnc3n2)cc1NC(=O)c1ccccc1C(F)(F)F
  109	98	89	x
> CN1C(=O)C2(/C(=C(/O)c3ccc(Cl)cc3)C(=O)C(=O)N2CC2CCCO2)c2ccccc21 (stereo unspecified)
  101	91	90	-5
> COc1ccccc1COCC(O)CN(Cc1ccco1)Cc1ccccc1O (stereo unspecified)
  x	116	90	-3
> Cc1cc2oc(=O)cc(CN3CCC(C)CC3)c2cc1C
  x	95	90	-1
> COC(=O)c1c(C)nc2ccccc2c1C(=O)O
  104	77	90	-5
> CC(Sc1ccc(S(=O)(=O)N2CCN(C)CC2)cn1)C(=O)NCC1CCCCC1 (stereo unspecified)
  x	94	89	-30
> COc1c(C(=O)Nc2ccc(Cl)cc2)cnc2c1c(C)nn2C
  99	96	82	-10
> COc1ccc(-n2nc3c(c2NC(=O)c2ccc(S(=O)(=O)N4CCOCC4)cc2)CSC3)cc1
  104	x	x	14
> CC1(C)C(=O)NN(c2ccccc2)C1=O
  96	x	x	-73
> Cn1cccc1C1=C(C#N)C(c2c(Cl)cccc2Cl)C(C#N)=C(N)O1 (stereo unspecified)
  102	91	87	-21
> CCOc1ccc(-c2c(C)nn3c(C)c(C(=O)NCc4cccc(OC)c4)cnc23)cc1OCC
  104	87	100	x
> CCCc1cc2c(=O)c(-c3ccc(C(=O)OCC)o3)coc2cc1OC
  x	100	91	-20
> O=C(OCc1ccco1)c1ccc(Cl)cc1
  103	105	58	-34
> N=c1oc2ccccc2cc1C(=O)Nc1ccc(F)cc1
  108	76	85	x
> Cn1c(C(C)(C)C)n[nH]c1=S
  107	92	96	-2
> COc1ccc(-c2coc3cc4oc(=O)c5c(c4cc23)CCC5)cc1F
  101	87	87	-20
> Cc1cc(O)c(C(C)C)cc1NC(=O)c1ccccc1
  x	81	89	-10
> CC(C)NC(=O)CCc1nc(-c2cc3ccccc3[nH]c2=O)no1
  105	x	x	-68
> CN(C)c1ccc(NC(=O)Cn2c(SCc3ccc(F)cc3)nc3cccnc32)cc1
  104	97	82	x
> CCC(C(=O)N1CCN(c2ccccc2)CC1)N1C(=O)CCCc2ccccc21 (stereo unspecified)
  111	x	x	-13
> COc1cccc(C(=O)N2CCCCC2CCN2CCCCC2)c1 (stereo unspecified)
  101	104	89	-8
> Cc1cccc(-c2nc3c4ccccc4nc(N4CCN(c5ccccc5F)CC4)n3n2)c1
  95	84	85	0
> CCOc1ccc(N=c2scc(-c3ccco3)n2/N=C/c2c[nH]c3ccccc23)cc1
  x	108	92	-10
> Cc1cc2c(=O)oc(-c3ccc(C(C)(C)C)cc3)nc2s1
  100	x	x	-14
> Cc1cn(S(=O)(=O)c2ccc(F)cc2)cn1
  102	95	82	x
> c1cc2c(cc1-c1nn[nH]n1)OCO2
  103	87	81	x
> Cc1ccc(CN(C)C(=O)c2ccc(S(=O)(=O)N3CCCCC3)cc2)o1
  x	91	93	-17
> CCN(CCCNC(=O)c1nn(-c2ccc(OC)cc2)c(=O)c2c1c1ccccc1n2C)c1cccc(C)c1
  103	99	93	-25
> CC1CCN(C(=O)c2ccc(CN3C(=O)CCn4nc(-c5ccc(Cl)cc5)cc43)cc2)CC1
  100	x	x	-4
> Cc1ccc(C(=O)COC(=O)c2c(F)cccc2F)cc1
  x	91	96	-18
> CCOC(=O)c1ccc(NC(=O)c2nn(-c3ccc(F)cc3)c(=O)cc2OC)cc1
  103	x	x	-24
> Cc1cc(C)c2c3c(sc2n1)C(=O)N(Cc1ccccc1)C(C)N3 (stereo unspecified)
  101	x	x	-74
> CN(C(=O)COC(=O)C1CCN(S(=O)(=O)c2cccs2)CC1)c1ccccc1
  x	97	87	-20
> COC(=O)Cn1c(CCS(=O)(=O)c2ccc(Br)cc2)nc2ccccc21
  99	93	90	-18
> COc1cccc(CNS(=O)(=O)c2c(C)nc3scc(C)n3c2=O)c1
  104	107	104	18
> O=C(c1ccccc1)N1CCN(C(=O)c2nn3c(c2Cl)NC(c2ccco2)CC3C(F)(F)F)CC1 (stereo unspecified)
  95	x	x	-17
> CCOc1cccc2cc(C(=O)NC(C)=O)c(=Nc3ccc(C(C)=O)cc3)oc12
  99	x	x	-15
> O=[N+]([O-])c1cc(-c2nc(-c3ccccc3)no2)ccc1NCCc1ccccc1
  106	106	86	-19
> CCN(CC)C(=O)CSc1ncc(CO)n1Cc1ccccc1
  110	93	102	5
> COc1ccc(C2(O)CCN(CC(=O)NC(C)C)CC2)cc1
  99	102	86	-7
> COc1cc2nc(CSc3ccc(Cl)cc3)n(CC#N)c(=O)c2cc1OC
  x	103	92	2
> CCn1c(SCC(=O)OCC(=O)Nc2ccc3ccccc3c2)nnc1-c1cccs1
  x	100	93	-34
> CN(Cc1ccccc1)S(=O)(=O)c1ccc2[nH]c3c(c2c1)CCCC3
  104	x	x	7
> N#CC1=C(N)n2ncnc2NC1c1ccc(F)cc1 (stereo unspecified)
  131	90	84	x
> Cc1cc(Nc2cc(Cl)ccc2C)n2nc(Cc3ccccc3)nc2n1
  103	93	81	-31
> CCc1ccc(C#N)cc1
  x	98	92	0
> CC1CCC(C(C)C)C(OC(=O)COC(=O)c2ccncc2)C1 (stereo unspecified)
  x	101	92	-14
> Cc1cccc(NC(=O)c2ccc3snnc3c2)c1
  105	108	85	-22
> COCCCn1c(-c2ccc(S(=O)(=O)N3CCOCC3)cc2)csc1=Nc1ccccc1
  101	105	87	-41
> O=C(Oc1c(Cl)cc(Cl)c2cccnc12)c1ccco1
  98	1.7*	3.1*	-48
> COc1ccnc2c1c(=O)n(CC(=O)Nc1ccc(Br)cc1)c(=O)n2C
  103	x	x	10
> Cc1cc(C)n2nc(CNC(=O)c3ccc(Cl)cc3)nc2n1
  106	100	91	9
> Cc1cc(NC(=O)C2CCC(CNS(=O)(=O)c3ccc(Br)s3)CC2)ccc1Br (stereo unspecified)
  98	102	83	-15
> CCOC(=O)c1ccccc1NC(=O)c1ccco1
  101	95	112	11
> CCOC(=O)c1ccncc1
  x	80	88	-11
> N#CCN(C(=O)CSc1nc2sc3c(c2c(=O)n1Cc1ccco1)CCCC3)c1ccccc1
  x	98	94	-8
> O=S1(=O)C[C@H](NC2CCCCCC2)[C@@H](S(=O)(=O)c2ccccc2)C1
  101	x	x	-24

# New compounds follow.
# Values in the order – GIV-Gai inh	Sa growth 42C	Sa growth 42C second temp	HCMV NEC inh
> Nc1n[nH]c(C(=O)N/N=C/c2cccs2)n1
  101	71	60	-57
> CCN1C/C(=N\S(=O)(=O)c2ccccc2)N(CC)C1=O
  103	112	101	-3
> Cc1cc(C)n(-c2nc(C(=O)O)cs2)n1
  103	91	89	x
> CN(C)c1ccc(C(c2nnnn2CCOC(=O)Nc2ccc(Cl)cc2)N2CCOCC2)cc1 (stereo unspecified)
  100	87	55	x
> NC(=O)COC(=O)c1ccc2c(c1)OCO2
  x	94	99	-3
> Cc1ccc(NC(=O)CN2C(=O)C(c3ccc(F)cc3)=NC23CCCCC3)c(C)c1
  101	92	94	-7
> CC(C)(C)C(=O)CSc1nnc(-c2ccncc2)n1-c1ccccc1
  x	92	93	-11
> Cc1cccc2c1-c1sc(C(=O)N(C)c3cccc(Cl)c3)cc1CO2
  110	89	89	-8
> CCCC(=O)Nc1cc2nn(-c3ccc(C)cc3)nc2cc1C
  103	88	80	-24
> CC(C)(C)NC(=O)c1ccc2snnc2c1
  x	94	87	-50
> c1ccc(COc2cccc(C3Oc4ccccc4C4CC(c5ccccc5)=NN43)c2)cc1 (stereo unspecified)
  107	x	x	-15
> COc1ccc(C2c3c(-c4ccccc4)n[nH]c(=O)c3Nc3nnnn32)cc1 (stereo unspecified)
  97	x	x	-64
> CCCC(=O)N1CC(=O)Nc2ccccc21
  101	x	x	-18
> O=C1NS(=O)(=O)C(c2ccccc2)=C1O
  101	89	81	-18

# Whole records, quoted from the list:
# `Cc1cc(C)n(-c2nc(C(=O)O)cs2)n1` across the screens: GIV-Gai inh: 103; Sa growth 42C: 91; Sa growth 42C second temp: 89; HCMV NEC inh: x
# `CC(C)(C)C(=O)CSc1nnc(-c2ccncc2)n1-c1ccccc1` across the screens: GIV-Gai inh: x; Sa growth 42C: 92; Sa growth 42C second temp: 93; HCMV NEC inh: -11

# High-throughput results as filed in PubChem.
